rRNA inh HTS: reduced GFP signal of wild-type E. coli, primary screen, bacterial rRNA inhibitor project, GFP/RFP fluorescence, OD600, single point; E. coli WT GFP vs humanized-ribosome RFP mutants, 24 h; stronger effect = lower value; DMSO median 0, no signal -100; GFP signal change (wild-type ribosome), % (test concentration not listed); 350,000 compounds, 1.6% hits;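 active means significant combined selectivity score with lowered wild-type GFP, culture density cut under 30%, mutant RFP and density less affected; inactive means any of these conditions unmet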; further: one replicate is shown; some compounds called inactive have numbers as strong as hits
T cruzi repl: inhibitors of intracellular T. cruzi growth, primary screen, luminescence, NIH3T3 host cells; T. cruzi beta-gal in NIH3T3, 90 h; inhibition, % (no concentration beside the values); 300,000 compounds, 1.4% hits; AID 1885, 2009;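 active means mean inhibition across valid replicates above about 55%, limit read from the data; inconclusive means mean below that limit but half or more replicates reach it; inactive means mean below it, under half of replicates reach it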;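 further: signal also drops with host cell toxicity which is not excluded here; 0% = plate median of DMSO wells and 100% = zero luminescence signal; higher percent means less beta-gal luminescence so fewer parasites; stock transfer was 50 nL into about 50 µL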
Beta cell apopt: inhibitors of cytokine-induced beta cell apoptosis, primary screen, luminescence; protection from apoptosis, % (no concentration beside the values); 300,000 compounds, 0.8% hits; INS-1E cytokine-induced death, ATP luminescence, 48 h; percent of positive-control rescue, neutral wells zero;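 active means all replicates at 75% or more, or half of them and the mean; inconclusive means half reach 75% but not the mean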;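 further: 0% = cytokine-treated negative control wells and 100% = positive control rescue; higher means more ATP so stronger rescue from cytokine killing; wells of about 40 µL received 100 nL stock; the first replicate is given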
Calb FLC: C. albicans growth inhibition with fluconazole, primary screen, CaCi-2 strain, Alamar Blue fluorescence; C. albicans CaCi-2 (fluconazole-resistant clinical isolate) + fluconazole, 48 h; growth inhibition, % (concentration not given with the values); 300,000 compounds, 0.57% hits; AID 1979, 2009;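 active means most replicates above 75%; inconclusive means exactly half above 75%; inactive means most below 75%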;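 further: all wells also contain fluconazole at 8 µg/ml as a sub-toxic cotreatment; 0% = median of DMSO wells and 100% = median of geldanamycin control wells; wells of about 8 µL received 7.5 nL stock; the first replicate is given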
LANA-H2B inh: blockers of LANA interaction with H2A/H2B – biochemical, FP readout, HTS, primary screen | cell-free LANA-H2A/H2B peptide, fluorescence polarization | 320,000 compounds, 0.6% hits | Protein LANA1 (Human herpesvirus 8 type P (isolate GK18)), Q9QR71 | AID 2629, 2010 | inhibition, % (test concentration not listed); in the data active means inhibition mostly above about 10%, no sharp cut-off; inactive means mostly below about 6.7%;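 further: stock transfer was 7.5 nL into about 10 µL; 0% = median of vehicle wells and 100% = median of positive control wells; one replicate is shown; the record names a cut of 25% in any replicate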
Target sequence (Q9QR71 whole entry, looked up): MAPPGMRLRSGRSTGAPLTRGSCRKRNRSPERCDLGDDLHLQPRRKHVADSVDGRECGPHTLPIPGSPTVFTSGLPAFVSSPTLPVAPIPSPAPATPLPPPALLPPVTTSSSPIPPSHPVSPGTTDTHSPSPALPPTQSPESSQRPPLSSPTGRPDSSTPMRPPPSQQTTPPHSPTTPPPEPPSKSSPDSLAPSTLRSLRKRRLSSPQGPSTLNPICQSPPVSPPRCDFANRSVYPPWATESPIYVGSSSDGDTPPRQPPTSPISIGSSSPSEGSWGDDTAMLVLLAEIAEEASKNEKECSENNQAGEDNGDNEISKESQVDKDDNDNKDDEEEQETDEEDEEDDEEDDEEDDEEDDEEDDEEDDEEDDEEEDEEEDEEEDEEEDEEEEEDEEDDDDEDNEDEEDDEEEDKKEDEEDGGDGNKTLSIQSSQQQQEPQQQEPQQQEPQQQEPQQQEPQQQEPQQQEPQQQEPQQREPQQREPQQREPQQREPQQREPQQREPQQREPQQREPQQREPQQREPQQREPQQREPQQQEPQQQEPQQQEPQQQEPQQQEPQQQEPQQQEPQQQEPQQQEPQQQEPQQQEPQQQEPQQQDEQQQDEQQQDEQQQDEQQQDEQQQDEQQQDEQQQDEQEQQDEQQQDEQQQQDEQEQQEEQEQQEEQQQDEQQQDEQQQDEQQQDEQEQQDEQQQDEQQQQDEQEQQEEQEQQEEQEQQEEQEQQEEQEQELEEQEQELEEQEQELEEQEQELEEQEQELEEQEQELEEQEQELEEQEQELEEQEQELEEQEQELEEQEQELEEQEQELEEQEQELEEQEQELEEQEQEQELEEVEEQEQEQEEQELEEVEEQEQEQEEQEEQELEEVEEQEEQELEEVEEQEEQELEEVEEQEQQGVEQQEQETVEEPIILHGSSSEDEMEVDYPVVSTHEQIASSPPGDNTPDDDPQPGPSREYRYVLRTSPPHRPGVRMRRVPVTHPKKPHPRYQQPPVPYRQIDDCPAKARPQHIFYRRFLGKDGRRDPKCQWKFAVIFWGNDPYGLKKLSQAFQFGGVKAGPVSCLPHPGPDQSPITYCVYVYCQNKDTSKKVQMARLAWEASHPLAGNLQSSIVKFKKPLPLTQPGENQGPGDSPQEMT
ALR H2O2 inh: inhibitors of human ALR sulfhydryl oxidase, primary screen, biochemical, H2O2 detection, HRP-luminol luminescence, single point | inhibition, % (test concentration not listed) | 290,000 compounds, 3.8% hits | purified ALR, DTT oxidation | FAD-linked sulfhydryl oxidase ALR (Homo sapiens), P55789;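 active means mean and each replicate at 75% or more; inconclusive means only one of the two met; inactive means neither met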;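 further: stock transfer was 7.5 nL into about 7.5 µL; 0% = neutral wells and 100% = wells with inactivated enzyme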
A1 inh: caspase 3/7 activation in MEF A1-2A-BIM cells, primary screen, A1 inhibitor project, cell-based, luminescence, HTS | caspase activation, % (concentration not given with the values) | AID 2462, 2010 | 330,000 compounds, 0.066% hits | Caspase-Glo 3/7 luminescence, 3 h; percent of clofoctol response, vehicle zero;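 active means over half of replicate activation scores above 10%, or exactly half above 10 with the replicate mean above 10; inconclusive means replicate mean below 10 yet half the replicates above 10; inactive means over half of replicates below 10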;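 further: wells of about 30 µL received 50 nL stock; many hits fall short of the cut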
Beta2AR agonist: beta2AR agonists driving receptor internalization, primary screen, cell-based, FAP fluorogen, flow cytometry. Am2.2-beta2AR cells; reference of the scale not given here. response, % (no concentration beside the values). Beta-2 adrenergic receptor (Homo sapiens), P07550. 340,000 compounds, 0.43% hits;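 active means response above a set limit, near 3 SD of response in nonfluorescent compounds, cut at about 42% in these data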;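 further: stock transfer was 100 nL into about 11 µL; a reference agonist was the positive control; negative values mostly stem from fluorescent compounds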
rRNA inh HTS OD600: also measured in rRNA inh HTS; calls as there; OD600 change, %; measured here: OD600 growth;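 optical density of the mix in the first replicate; 0 = DMSO median and -100 = no signal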
rRNA inh HTS RFP: second read-out of rRNA inh HTS, no call of its own (marks repeat the call); RFP signal change, %; measured here: RFP humanized mutant strains;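 first replicate; 0 = DMSO median and -100 = no signal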
* hit, by the source's call; ? = inconclusive; . = not tested or not shown.

Sample of the layout, 11 compounds:
SMILES	rRNA inh HTS	rRNA inh HTS OD600	rRNA inh HTS RFP	T cruzi repl	Beta cell apopt	Calb FLC	LANA-H2B inh	ALR H2O2 inh	A1 inh	Beta2AR agonist
COCCSc1nnc(NC(=O)C2CC(=O)N(c3ccc(C)cc3)C2)s1 (stereo unspecified)	7.0	-7.1	0.0	-12.8	-6.7	99.2*	-1.7	.	0.0	2.1
Cc1nnn(C23CC4CC(CC(CC(=O)Nc5cccc(F)c5)(C4)C2)C3)n1	-8.4	6.4	6.3	-19.3	-1.6	5.3	-2.0	-3.5	0.1	0.7
Cc1cc(NC(=O)C(C)SCC(=O)Nc2ccc(Br)cc2Br)no1 (stereo unspecified)	-19.2	-19.0	-1.3	-8.2	.	3.3	1.9	-1.2	-0.3	-1.3
CCC(CC)COC(=O)C(C#N)c1nc2ccccc2nc1N1CCOCC1 (stereo unspecified)	.	.	.	51.8	23.3	-5.8	1.2	-2.8	-0.5	-16.7
Cc1c(NC(=O)c2cc(-c3ccco3)on2)c(=O)n(-c2ccccc2)n1C	.	.	.	2.6	-3.7	-2.7	-3.1	3.2	-0.3	3.0
COc1ccccc1CNC(=O)[C@H](C)NC(=O)C1CCN(C(=O)[C@@H](N)CC(C)C)CC1	.	.	.	9.9	-2.0	0.1	2.4	-0.6	1.1	-12.0
C[C@H](CO)N1C[C@H](C)[C@@H](CN(C)C(=O)Nc2ccccc2)Oc2c(NC(=O)Cc3ccccc3)cccc2C1=O	.	.	.	.	-7.5	.	-0.1	-0.6	0.1	2.0
O=C(/C=C/c1ccccc1Cl)NC1CCCCC1	4.1	9.1	-1.5	-5.0	-1.8	8.8	-6.0	-1.1	-1.2	0.8
Cc1cccc(OCCC(=O)Nc2ccc(C)c(S(=O)(=O)N3CCCCC3)c2)c1	-4.9	-1.6	15.4	-6.6	-1.6	5.7	-4.0	-20.9	0.4	5.5
Cn1c(-c2ccc(-c3ccccc3)cc2)c[nH]c1=S	.	.	.	38.5	-6.6	37.1	5.8	49.6	-2.7	1.9
O=C(/C=C\c1ccc2c(c1)OCO2)NC1(C(=O)Nc2ccc3c(c2)OCCO3)CCCCC1	.	.	.	-7.6	-5.0	-24.7	2.8	-28.8	0.7	-0.3

The list itself, repeating the preview:
SMILES	rRNA inh HTS	rRNA inh HTS OD600	rRNA inh HTS RFP	T cruzi repl	Beta cell apopt	Calb FLC	LANA-H2B inh	ALR H2O2 inh	A1 inh	Beta2AR agonist
COCCSc1nnc(NC(=O)C2CC(=O)N(c3ccc(C)cc3)C2)s1 (stereo unspecified)	7.0	-7.1	0.0	-12.8	-6.7	99.2*	-1.7	.	0.0	2.1
Cc1nnn(C23CC4CC(CC(CC(=O)Nc5cccc(F)c5)(C4)C2)C3)n1	-8.4	6.4	6.3	-19.3	-1.6	5.3	-2.0	-3.5	0.1	0.7
Cc1cc(NC(=O)C(C)SCC(=O)Nc2ccc(Br)cc2Br)no1 (stereo unspecified)	-19.2	-19.0	-1.3	-8.2	.	3.3	1.9	-1.2	-0.3	-1.3
CCC(CC)COC(=O)C(C#N)c1nc2ccccc2nc1N1CCOCC1 (stereo unspecified)	.	.	.	51.8	23.3	-5.8	1.2	-2.8	-0.5	-16.7
Cc1c(NC(=O)c2cc(-c3ccco3)on2)c(=O)n(-c2ccccc2)n1C	.	.	.	2.6	-3.7	-2.7	-3.1	3.2	-0.3	3.0
COc1ccccc1CNC(=O)[C@H](C)NC(=O)C1CCN(C(=O)[C@@H](N)CC(C)C)CC1	.	.	.	9.9	-2.0	0.1	2.4	-0.6	1.1	-12.0
C[C@H](CO)N1C[C@H](C)[C@@H](CN(C)C(=O)Nc2ccccc2)Oc2c(NC(=O)Cc3ccccc3)cccc2C1=O	.	.	.	.	-7.5	.	-0.1	-0.6	0.1	2.0
O=C(/C=C/c1ccccc1Cl)NC1CCCCC1	4.1	9.1	-1.5	-5.0	-1.8	8.8	-6.0	-1.1	-1.2	0.8
Cc1cccc(OCCC(=O)Nc2ccc(C)c(S(=O)(=O)N3CCCCC3)c2)c1	-4.9	-1.6	15.4	-6.6	-1.6	5.7	-4.0	-20.9	0.4	5.5
Cn1c(-c2ccc(-c3ccccc3)cc2)c[nH]c1=S	.	.	.	38.5	-6.6	37.1	5.8	49.6	-2.7	1.9
O=C(/C=C\c1ccc2c(c1)OCO2)NC1(C(=O)Nc2ccc3c(c2)OCCO3)CCCCC1	.	.	.	-7.6	-5.0	-24.7	2.8	-28.8	0.7	-0.3
CCOc1ccc(NC(=O)CN(C)C(=O)c2ccccc2Cc2ccccc2)cc1OCC	-10.2	-32.0	3.8	.	-5.6	.	4.3	-10.6	0.1	15.6
O=C(Nc1ccccc1Cl)c1cc[n+](Cc2ccc([N+](=O)[O-])cc2)cc1	14.8	17.2	1.5	-10.2	3.1	4.4	5.5	-12.2	-0.2	-0.7
O=C(O)C1CCCN1C(=O)Nc1ccccc1 (stereo unspecified)	.	.	.	-4.7	.	-18.5	-0.7	2.5	0.7	-7.7
CCC1CCCN1Cn1cnc2c([nH]c3ccc(OC)cc32)c1=O (stereo unspecified)	.	.	.	44.6	-7.0	12.3	-1.2	-6.1	0.2	-5.5
Cc1ccc(CN2C(=O)N/C(=C\c3ccc(N4CCOCC4)cc3)C2=O)cc1	.	.	.	-6.4	-3.0	4.6	.	.	0.9	-2.3
CN(C)C1(CNC(=O)C2CCN(S(=O)(=O)c3cccc(C(F)(F)F)c3)CC2)CCCCC1	3.1	13.8	1.8	25.9	.	1.8	5.2	3.8	1.7	-0.9
CCN(CC)C(=O)C(=O)c1cccn1-c1cccc(Cl)c1C#N	.	.	.	0.8	-0.5	-1.1	-0.1	-34.2	0.5	-4.5
COc1ccc(CC(C)CC(=O)Nc2ccc(OC)cc2)cc1 (stereo unspecified)	0.4	-8.1	-5.2	-15.8	-6.2	-8.5	-4.0	-18.8	0.3	-0.6
O=C(N/N=C/c1ccc(N2CCOCC2)s1)c1ccccc1Cl	5.9	11.1	3.0	2.5	1.9	-3.1	3.1	87.6*	-0.5	-9.6
C/C(=N\NC(N)=O)c1ccc(Cl)cc1	.	.	.	-23.7	-4.4	-0.5	1.8	-6.0	1.4	-1.4
O=C(Cn1ccc2ccccc2c1=O)NCCC(=O)NC1CCN(Cc2ccccc2)CC1	.	.	.	0.9	-21.6	-4.3	7.6	-3.3	1.3	3.7
O=C(Nc1ccccc1)/C(=C/c1cccnc1)NC(=O)c1ccccc1	8.6	6.5	0.8	2.6	-5.1	-2.8	2.1	-2.2	0.0	0.7
O=C(C1=C[C@@H](C2CC2)C[C@@H](OCCCCO)O1)N1CCN(Cc2ccccc2)CC1	1.9	1.8	2.3	12.6	-1.6	-21.4	3.5	-19.9	0.0	-0.3
O=C(CNC(=O)c1ccc(N2C(=O)c3ccccc3C2=O)cc1)OCC(=O)c1ccccc1	6.6	5.3	2.2	-12.0	-1.6	16.5	1.0	-0.4	0.2	-0.9
O=S(=O)(Nc1ncccn1)c1cc(Cl)ccc1Cl	4.8	-1.5	-7.2	-0.4	-1.2	13.6	4.2	-5.3	0.2	0.5
N#Cc1ccccc1Cn1c(=O)n(CCC(=O)NCc2ccco2)c(=O)c2ccccc21	.	.	.	8.0	5.5	-10.7	0.3	-3.7	0.1	5.0
Cn1cnc2c1c(=O)n(Cc1cccc(Cl)c1)c(=O)n2C	2.0	6.1	-2.0	-7.0	-3.3	2.7	3.2	5.0	0.2	9.6
O=C(CN1C(=O)c2ccccc2C1=O)Nc1ccc2c(c1)OCO2	.	.	.	-14.1	-8.1	7.5	-0.8	-10.0	-0.7	-3.2
Cc1cc(Cl)ccc1C(=O)C1CCCN(C(=O)CCn2cncn2)C1 (stereo unspecified)	-1.8	-5.8	-0.2	-9.1	1.9	2.0	1.6	-3.5	-0.1	-6.4
c1ccc(CNc2nc(-c3cccnc3)nc3ccccc23)cc1	-63.7	-81.7	-19.5	44.7	-7.1	19.6	-3.2	-19.7	0.7	-10.9
Cc1ccc(CNC(=O)c2cc(-c3ccccc3C)n(CC3CC(c4cccc([N+](=O)[O-])c4)=NO3)n2)cc1 (stereo unspecified)	7.0	10.7	-2.5	.	6.7	.	3.2	-3.7	1.5	-0.5
Cc1ccc(-c2[nH]nc(N)c2N=Nc2ccccc2C)cc1	.	.	.	-4.9	-13.1	46.6	4.6	-0.6	0.4	9.3
O=C(CN1CCN(c2ccc(Cl)cc2)CC1)NCc1cccs1	2.5	7.0	0.3	8.3	-8.8	-36.7	1.2	36.8	-0.5	5.3
COc1ccc(C(=O)NCC(=O)N/N=C/C=C/c2ccccc2)cc1OC	12.7	9.9	0.9	-4.2	-7.2	?	-14.5	-15.6	0.0	-1.2
COc1ccccc1/C=N/NC(=O)CNC(=O)c1ccc(S(=O)(=O)N(C)C)cc1	9.7	9.6	-0.3	-9.5	-7.1	-7.1	-7.1	-3.3	-0.7	3.0
Cc1noc(C)c1C(=O)OC(C)C(=O)Nc1ccc(S(=O)(=O)NC(C)C)cc1 (stereo unspecified)	.	.	.	6.6	-4.8	0.1	1.9	-12.7	0.6	3.1
COc1ccc(CN2CCNC(=O)C2CC(=O)NC2CCCCCC2)c(C)c1C (stereo unspecified)	-4.6	2.0	-2.6	1.3	-6.5	1.3	-4.6	1.5	0.3	-5.1
CCCOc1cccc(C(=O)Nc2cc(NC(=O)c3ccco3)ccc2OC)c1	.	.	.	29.9	7.4	15.0	1.3	23.7	1.4	-14.0
O=C(NC1CCCCCCC1)c1ccc(F)c(S(=O)(=O)N2CCOCC2)c1	1.7	3.3	-1.0	.	-4.3	.	5.3	-2.4	0.4	1.5
COc1cc(C)ccc1OCCOCCN(C)Cc1ccccc1	.	.	.	23.6	2.4	-7.7	-6.3	-1.3	1.3	4.0
O=C(CCCCCCCC(=O)NCC1CCCO1)NCC1CCCO1 (stereo unspecified)	.	.	.	2.0	-5.9	-4.1	-4.2	0.9	-0.7	5.2
CCOc1cc(-c2nc(-c3cc(OC)c(OC)c(OC)c3)no2)cc(OCC)c1OCC	.	.	.	-4.8	-2.9	72.2	3.0	-9.5	-1.2	.
Cn1c(CCNC(=O)c2ccccc2F)nnc1SCC(=O)Nc1nncs1	2.2	19.8	-3.0	-1.0	5.4	3.2	-0.4	-12.7	1.4	-4.5

Not all compounds are listed; count on the stated rates, not on these rows.
